KCNQ2 inh: KCNQ2 channel blockers in CHO-K1 cells – cell-based, FluxOR thallium flux, B-score, primary screen (AID 2156). 20 min; active compounds read low; only compounds with negative scores are shown here; some inactives read as strong as hits. B-score at 10 µM. 1.1% of 310,000 active;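 active = fluorescence ratio B-score at most minus 3 library SDs, with starting brightness B-score within 2 library SDs, cut at about -5.5 in these data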
Target sequence (O88943 whole entry, looked up): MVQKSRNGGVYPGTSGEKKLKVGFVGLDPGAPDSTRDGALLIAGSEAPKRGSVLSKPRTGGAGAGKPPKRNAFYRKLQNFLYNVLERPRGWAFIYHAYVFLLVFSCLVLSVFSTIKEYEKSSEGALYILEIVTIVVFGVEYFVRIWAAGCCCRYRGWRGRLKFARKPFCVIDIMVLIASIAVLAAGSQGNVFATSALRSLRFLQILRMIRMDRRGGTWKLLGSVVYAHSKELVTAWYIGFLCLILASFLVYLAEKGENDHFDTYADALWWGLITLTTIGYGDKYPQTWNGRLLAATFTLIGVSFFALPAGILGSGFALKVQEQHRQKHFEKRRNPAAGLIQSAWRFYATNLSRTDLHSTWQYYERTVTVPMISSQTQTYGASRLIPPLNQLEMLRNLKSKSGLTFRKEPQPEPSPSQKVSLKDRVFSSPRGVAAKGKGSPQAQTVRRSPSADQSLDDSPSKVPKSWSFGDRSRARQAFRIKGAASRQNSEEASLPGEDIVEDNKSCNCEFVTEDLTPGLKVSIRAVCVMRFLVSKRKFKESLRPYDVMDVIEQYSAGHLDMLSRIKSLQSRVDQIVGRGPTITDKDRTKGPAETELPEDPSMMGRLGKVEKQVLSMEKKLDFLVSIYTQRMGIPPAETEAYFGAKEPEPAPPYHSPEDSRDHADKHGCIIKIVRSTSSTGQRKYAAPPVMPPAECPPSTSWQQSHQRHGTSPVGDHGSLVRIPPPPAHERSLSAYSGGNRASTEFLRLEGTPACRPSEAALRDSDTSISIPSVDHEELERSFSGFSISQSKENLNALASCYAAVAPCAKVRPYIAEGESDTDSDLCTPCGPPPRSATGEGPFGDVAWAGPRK
KCNQ2 inh baseline: further read-out of KCNQ2 inh, marked with its call; B-score; measured here: initial fluorescence intensity artifact check;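 brightness before thallium and not channel activity; 0 = typical well and far values either way flag optical interference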
Active calls of the source: *; i = inactive.

structure	KCNQ2 inh	KCNQ2 inh baseline
CC(/C=C(\C)Nc1ccccc1)=Nc1ccccc1	i	0.11
CC(C)(C)NC(=S)N1CCn2cccc2C1c1cccnc1 (stereo not given)	i	0.76
CCC(=O)c1cn(Cc2ccccc2C#N)c2ccccc12	i	-0.49
CCOc1ccc(Cl)cc1CNCCc1ccccc1F	i	0.54
COc1ccc2c(c1)CC1(CN2C)C(=O)NC(=O)N(CCc2ccccc2)C1=O (stereo not given)	i	1.8
C=CCN(CC=C)C(=O)Nc1ccc(OCC)cc1	i	-1.5
COc1ccc(N2C(=O)NC(=O)/C(=C/c3ccc([N+](=O)[O-])s3)C2=O)cc1	i	-0.92
COc1ccc(C(=O)N2CCCC2=O)cc1	i	-0.97
CCC(=Nc1ccc2c(c1)CCC2)c1c(O)n(C2CCCCC2)c(=O)[nH]c1=O	i	1.3
CC12CC[C@H]3[C@@H](CCC4(O)C[C@H](O)CCC34/C=N/NC(=O)c3ccccc3O)C1(O)CCC2C1=CC(=O)OC1 (stereo not given in full)	i	-0.92
O=[N+]([O-])c1cc(Cl)c(O)c(-[n+]2c(-c3ccccc3)cc(-c3ccccc3)cc2-c2ccccc2)c1	i	0.13
CCC(=NCCCn1ccnc1)c1c(O)n(Cc2ccccc2)c(=O)[nH]c1=O	i	2.8
C#CCOc1ccc2c(c1)c(C(C)=O)c(C)n2Cc1ccccc1	i	1.5
O=C(COc1ccccc1F)N1CCN(CCN2C(=O)c3cccc4cccc(c34)C2=O)CC1	i	-0.17
COc1ccc2c(c1)c(C(=O)C(C)N1CCCCC1)c(C)n2C (stereo not given)	i	-2.2
O=C1NC(=O)N(c2cccc(Br)c2)C(=O)/C1=C/c1ccsc1	i	-0.2
CCN(CC)CCN1Cc2ccccc2C1=N	i	0.64
CN1CCN(c2c(N)c(=O)oc3ccccc23)CC1	i	-0.26
CCC(C)N1Cc2ccccc2C1=N (stereo not given)	i	-0.32
O=C1CN(O)C(c2ccccc2)=c2cc(Br)ccc2=N1	i	0.05
Cc1cccc(-n2c(-c3ccco3)nc3ccccc3c2=O)n1	i	-1.4
CCCCOCCCn1c(N)c(C(=O)OC(C)COC)c2nc3ccccc3nc21 (stereo not given)	i	0.6
Cc1ccccc1N1C(=O)NC(=O)/C(=C\c2cc(Br)c(N3CCOCC3)o2)C1=O	i	2
Brc1ccc2[nH]cc(/C=N/N3CCCCC3)c2c1	i	0.2

By substructure, the compounds so far with a thiophene ring, fused or not (2)
structure	KCNQ2 inh	KCNQ2 inh baseline
COc1ccc(N2C(=O)NC(=O)/C(=C/c3ccc([N+](=O)[O-])s3)C2=O)cc1	i	-0.92
O=C1NC(=O)N(c2cccc(Br)c2)C(=O)/C1=C/c1ccsc1	i	-0.2

The list continues.
structure	KCNQ2 inh	KCNQ2 inh baseline
CCOc1cc(/C=C2/C(=O)NC(=O)N(c3ccc(CC)cc3)C2=O)ccc1OC(=O)c1cccs1	i	-0.17
O=C1NC(=O)C(=CN2CCc3ccccc32)C(=O)N1	i	1.2
CCCCn1c(=O)c(C(=O)NCc2ccccc2)c(O)c2ccccc21	i	-0.55
COC(=O)C(O)(c1ccc(N=Cc2ccccc2O)c(C)c1)C(F)(F)F (stereo not given)	i	1.5
c1ccc(CN2CCNCC2)nc1	i	-0.74
Cn1c(O)c(C=NCCOc2ccc(Cl)cc2)c(=O)n(C)c1=O	i	-1.6
Clc1ccc2c(c1)C(OC1CN3CCC1CC3)c1ccccc1CS2 (stereo not given)	i	0.56
COc1ccc(OCC(=O)N2CCN(Cc3ccc(SC)cc3)CC2)cc1	i	-0.87
S=C(c1ccc(Cl)cc1)N1CCOCC1	i	-1.9
Oc1ccc(/C=N/NP(=S)(c2ccccc2)c2ccccc2)cc1	i	0.82
O=[N+]([O-])c1ccc(N2CCCNCC2)c2ncccc12	i	-0.56
CN(C)CP(=O)(O)CN(C)C=O	i	1.3
CN1CCC(N(C)c2nc(-c3ccc([N+](=O)[O-])cc3)nc3ccccc23)CC1	-6*	-1.7*
CC(C)C12CN3CCN(CC(C3)/C1=N\O)C2	i	0.34
Cc1c(OC(=O)N(C)C)ccc2c1O/C(=C\c1ccco1)C2=O	i	-0.06
Cc1ccc(C2=NCC(=O)N(CC(=O)N3CCCCC3)c3sc(C)c(C)c32)cc1	i	-0.16
Cc1ccc(NC2=NCCCS2)c(C)c1C	i	-1.1
O=C(Cc1ccccc1)N1CCN(CC2CC3C=CC2C3)CC1 (stereo not given)	i	0.06
CCOC(=O)C(C)Oc1cc(C)cc2oc(=O)c3c(c12)CCCC3 (stereo not given)	i	0.82
Cc1cccc(OP(=O)(Nc2ccc(F)cc2)Oc2cccc(C)c2)c1	i	-0.11
C[C@]12CCC(=O)C=C1CC[C@@H]1C2[C@H](O)C[C@]2(C)C(=O)CCC12 (stereo not given in full)	i	-0.47
O=C(N/N=C/c1c(O)n(C2CC2)c(=S)[nH]c1=O)c1ccccc1O	i	0.2
CCC12CN3CC(CC)(CN(C1)C3c1cccnc1)C2=O (stereo not given)	i	0.55
C=C(C)CSc1nnc([C@@H](N)Cc2c[nH]c3ccccc23)o1	i	0.4
Nc1ccccc1-[n+]1c(-c2ccccc2)cc(-c2ccccc2)cc1-c1ccccc1	-6.5*	-1.8*
CN(C)c1ccc(-[n+]2c(-c3ccccc3)cc(-c3ccccc3)cc2-c2ccccc2)cc1	-9.1*	-1.3*
O=C(O)c1ccc(N=Cc2c(O)[nH]c(=O)[nH]c2=O)cc1	i	0.82
CCCCNC(=O)c1c(N)n(CCCOC)c2nc3ccccc3nc12	-8.5*	1*
CCOC(=O)c1ccc(N2C(=O)CC(N3CCC(C#N)(c4ccccc4)CC3)C2=O)cc1 (stereo not given)	i	-3.6
C#CCN1CCN(c2ccc(F)cc2)CC1	i	0.19
CN(C)P(=O)(C(Cl)=C(N1CCCCC1)N1CCCCC1)N(C)C	i	-0.81
Nc1ccc2c(c1)Cc1ccccc1-2	i	0.79
Cc1ccccc1-n1c(O)c(/C=N/N2CCOCC2)c(=O)[nH]c1=S	i	2.3
O=c1[nH]c2ccccc2c(=O)n1-c1cccc(Cl)c1	i	1.4
Cc1c(CCN)ccc2c1[nH]c1ccccc12	i	-0.26
O=c1[nH]c(=O)n(Cc2ccc(F)cc2)c(O)c1C=NCC1CCCO1 (stereo not given)	i	2.3
COCCNC(=O)Cn1cc(/C=C2\C(=O)NC(=O)N(c3ccccc3F)C2=O)c2ccccc21	i	3.5
CCOc1ccc(N=Cc2c(O)n(-c3ccc(C)c(C)c3)c(=O)[nH]c2=O)cc1	i	-1.5
CCCCCn1c(=O)c(C(=O)NCc2ccccn2)c(O)c2ccccc21	i	-0.44
O=C1CCCN1CC#CCN1CCCC1	i	-2
O=C(CCNC(=O)N1C[C@H]2C[C@@H](C1)c1cccc(=O)n1C2)Nc1ccc(F)cc1	i	0.59
Cc1ccc(Cl)cc1-n1c(O)c(C=NCCCN2CCOCC2)c(=O)[nH]c1=O	i	1.8
CNC(=O)Oc1ccc(-c2cn3cc(Cl)ccc3n2)cc1	i	1.2
Cc1ccc(CN2CCN(CC(=O)N3CCC4(CC3)OCCO4)C2=O)cc1	i	-0.39
CCCCP(=O)(O)CCC(=O)O	i	1.9
O=C1NC(=O)C(=Cc2ccc(-c3cc(Cl)ccc3[N+](=O)[O-])o2)C(=O)N1	i	-2
CC(C)CCn1c(=O)c(C(=O)NCc2ccc3c(c2)OCO3)c(O)c2ccccc21	i	-0.37
CC12CC(c3ccccc3O1)C(C(=O)OCc1ccccc1)C(=O)N2 (stereo not given)	i	-0.67
O=C(c1ccccc1)c1cn(CC(=O)N2CCCC2)c2ccccc12	i	-1.5
COC(=O)C1=C(N)Oc2c(c(=O)oc3ccccc23)C1c1cccnc1 (stereo not given)	i	1.8
Cc1ccc(N2C(=O)NC(=O)/C(=C/c3ccc(OC(=O)c4cccs4)cc3)C2=O)cc1	i	-1.6
CN1CCN(Cc2nc3ccccc3c(=O)[nH]2)CC1	i	-1.1
Cc1cc(C)n(CCOC(=O)C2C(C=C(Cl)Cl)C2(C)C)n1 (stereo not given)	i	0.06
CC(C)OC(=O)Nc1ccc(N=C(N)N[N+](=O)[O-])cc1	i	2.3
CC(N)Cc1c[nH]c2ccc(OCc3cccs3)cc12 (stereo not given)	i	1.9
Cc1ccc(NC(=O)c2ccc(C)c(S(=O)(=O)N3CCCCC3)c2)nc1	i	-1.3
CC(=NCC1CCCO1)c1c(O)n(-c2ccc(C)cc2)c(=O)[nH]c1=O (stereo not given)	i	1.6
Cc1cc(OCC(=O)N2CCC(C(=O)O)(c3ccccc3)CC2)c2c(C)c(C)c(=O)oc2c1	i	-1.3
CCC(=Nc1cc(OC)ccc1OC)c1c(O)[nH]c(=O)[nH]c1=O	i	-0.04
O=C(/C=C/c1ccc2c(c1)OCO2)c1c(O)n(CCc2ccccc2)c(=O)[nH]c1=O	i	0.9

Further compounds.
structure	KCNQ2 inh	KCNQ2 inh baseline
CC1(C)Cc2c(sc3c2C(=O)NC(c2cccnc2)N3)CO1 (stereo not given)	i	-0.92
CCOc1cc2c(cc1OCC)-n1cccc1C(c1ccc(OC)c(O)c1)NC2 (stereo not given)	i	2.1
O=c1[nH]c(=O)n(C2CCCCCC2)c(O)c1C=NC1CCN(Cc2ccccc2)CC1	i	0.45
C[C@H]1CC[C@H]2NCCN[C@H]2C1	i	2.3
Cc1ccccc1N1C(=O)NC(=O)/C(=C\c2ccc3c(c2)CCCN3Cc2ccccc2)C1=O	i	0.85
Nc1ccc2nonc2c1[N+](=O)[O-]	i	27
O=C1NC(=O)N(c2ccccc2)C(=O)/C1=C\c1ccc([N+](=O)[O-])o1	i	-0.23
CN1CCN(c2ccc(NC(=O)C(C)(C)C)cc2)CC1	i	-0.47
CC1(C)C2([N+](=O)[O-])CNCC1([N+](=O)[O-])CNC2	i	-0.63
CCCCn1c(=O)c(C(=O)NCc2ccccc2Cl)c(O)c2ccccc21	i	0.05
Clc1ccc2c(c1)C(c1ccccc1Cl)=NCc1nncn1-2	i	-1.5
CCCc1c(C)nc(-c2ccc(C)cc2)nc1OC(=O)N(C)C	i	-1.8

Profiles, quoted from the list:
`Cc1ccccc1N1C(=O)NC(=O)/C(=C\c2ccc3c(c2)CCCN3Cc2ccccc2)C1=O` reads KCNQ2 inh: i; KCNQ2 inh baseline: 0.85
`O=C1NC(=O)N(c2ccccc2)C(=O)/C1=C\c1ccc([N+](=O)[O-])o1` reads KCNQ2 inh: i; KCNQ2 inh baseline: -0.23

Additional entries follow:
structure	KCNQ2 inh	KCNQ2 inh baseline
O=C1NC(=O)C(=Cc2coc3ccc(O)cc3c2=O)C(=O)N1	-5.8*	-0.5*
COc1ccccc1N1CCN(Cc2cccc(OC)c2O)CC1	i	-1.2
C=CCn1c(O)c(C(C)=NCCCN2CCOCC2)c(=O)[nH]c1=O	i	-1.2
COc1ccccc1-n1c(/C=C/c2ccccn2)nc2ccccc2c1=O	i	-0.25
Cc1ccc(CN2CCSc3ccc(C(=O)N4CCC5(CC4)OCCO5)cc32)cc1	i	1.5
CC1(C)C(C(=O)NCc2ccco2)C1(C)C	i	2.1
CNCCc1ccc(O)c(O)c1	i	0.95
CCCCCCN=C(C)c1c(O)n(Cc2ccccc2)c(=O)[nH]c1=O	i	0.17
COc1ccc(NC2=NC(C)(C)CS2)cc1	i	0.53
Cc1cc(OCc2nn[nH]n2)c2c3c(c(=O)oc2c1)CCCC3	i	0.27
Cc1nonc1-c1nc(-c2nonc2N)n[nH]1	i	-0.97
Cc1ccc(OCC(=O)N2CCN(Cc3ccc4c(c3)OCO4)CC2)cc1C	i	1.1
O=c1c(C=Nc2cccnc2Cl)c(O)n(CCCCl)c(=O)n1C1CCCCC1	i	-1.1
N=c1sc2c(n1Cc1ccccc1)CCCC2	i	1.7
C=CCN1CCc2cccc3c2[C@H]1Cc1ccc(O)c(O)c1-3	i	-2.2
Fc1cccc(CN2CCN(c3ccc(Cl)cc3)CC2)c1	i	0.5
COC(=O)C1=C(c2cccc(OC)c2OC)C[C@@H]2CC[C@H]1N2C(=O)N1CCCCC1	i	-0.1
CC(=O)OC1N=C(c2ccccc2)c2cc(Br)ccc2N(C)C1=O (stereo not given)	i	-1.9
CCOC(=O)C1(c2ccccc2)CCN(CCC(C#N)(c2ccccc2)c2ccccc2)CC1	-6.8*	-0.32*
O=c1c(C=NCc2cccs2)c(O)n(C2CCCCC2)c(=O)n1C1CCCCC1	i	1.3
O=C1NC(=O)N(c2ccc3c(c2)OCO3)C(=O)/C1=C/c1ccc(N2CCCC2)o1	i	5.8
COC(=O)C1=C(c2ccccc2)C[C@@H]2CC[C@H]1N2C(=O)NCc1cccc2ccccc12	i	0.73
C/C(=N/OC(=O)N(C)C)c1ncc(C(F)(F)F)cc1N1CCOCC1	i	-0.01
Cc1cc(C(=O)CS(=O)c2ccc(F)cc2)cc(C)c1OC(=O)N(C)C (stereo not given)	i	2.6
Cc1ccc(C(c2nnnn2Cc2ccccc2)N2CC=C(c3ccc(F)cc3)CC2)cc1 (stereo not given)	-5.7*	0.42*
O=P(NS(=O)(=O)c1ccc(Cl)cc1)(Oc1ccccc1)Oc1ccccc1	i	0.67
Cc1ccc(CN2CCCC(C(=O)c3cccc(C(F)(F)F)c3)C2)o1 (stereo not given)	i	0.17
c1ccc(CCNCc2ccccc2)cc1	i	2.4
CCCCn1c(O)c(/C=C2/C=CC=N2)c(=O)[nH]c1=O	i	-0.09

Assay outcomes: PubChem, Johns Hopkins Ion Channel Center

The list is partial. The share of hits here may be higher or lower than overall.
